Vaccinia Venus = vaccinia inhibition (Venus reporter) | 0.46% of 330,000 active | AID 720580 | Potency, µM (series often up to 36.5 µM), for the others: at the highest dose activity change, negative = inhibition, most hits filed as inhibitors | Vaccinia virus Venus reporter expression, fluorescence; active means well fitted inhibition curve with a large enough effect; inconclusive means small, poorly fitted or top-dose-only effect; inactive means no such curve, though single readings can be large or run the other way; tested in A549 cells; note: nearly all actives have a fitted effect of over 30% in size; inactives centre near -10
VACV mCherry inh = inhibitors of vaccinia virus infection (mCherry reporter signal) | Vaccinia virus mCherry reporter infection, fluorescence; about a quarter of the inactives have no number | Potency, µM (titrated, usually from 36.5 µM), for the others: top-dose activity change, negative = inhibition, actives largely listed as inhibitors | 0.63% of 310,000 active | AID 720579; active = well fitted inhibition curve with a large enough effect; inconclusive = small, poorly fitted or top-dose-only effect; inactive = no such curve, though single readings can be large or run the other way; tested in A549 cells; note: nearly all actives have a fitted effect of over 35% in size; inactives centre near -10
* = called active by the depositor; i = inactive; ? = inconclusive; . = not tested or not shown; [ ] = remark or other dose. % is set by controls: 0 for no effect and ±100 for the full control effect; potency is the fitted concentration of half-maximal effect. The order is random; about 0.87% have a hit in one of these screens.

SMILES | Vaccinia Venus | VACV mCherry inh
CCOC(=O)c1c(N)n(-c2cccc(C)c2C)c2nc3ccccc3nc12 | 2% | -1%
Cc1ccc2c(c1)CCCN2C(=O)CCc1nc2ccccc2c(=O)[nH]1 | -26% | -12%
O=C(CCSc1nnc(-c2ccccc2)o1)N1CCOCC1 | -4% | 2%
COc1ccc(S(=O)(=O)NCCSc2nnnn2-c2ccccc2)cc1 | -10% | -13%
Cc1[nH][nH]c(=O)c1N=Nc1ccc(Br)c(Cl)c1 | 1% | i
CC(C)C(=O)N=c1sc2cc(F)cc(F)c2n1C | -16% | -8%
CC(C)c1ccccc1-n1c(SCC(=O)N2CCN(c3ccccc3)CC2)nnc1-c1cccnc1 | ? | .
O=C(OC1CCCCC1=O)c1cccc(S(=O)(=O)N2CCCCC2)c1 (centres undefined) | -11% | 0%
NC(=O)CN(Cc1ccccc1)S(=O)(=O)c1ccc2c(c1)OCCO2 | 2% | -17%
Cc1ccccc1NC(=O)CN1C(=S)NC(C)(C)CC1C (centres undefined) | -10% | i
COC(=O)CSc1nc2cc3c(cc2cc1C#N)OCO3 | -14% | ?
Nc1nnc(SCC(=O)c2ccc3ccccc3c2)s1 | -17% | -27%
CCOc1ccc2[nH]c(=O)c(CN(CCOC)C(=O)N3CCOCC3)cc2c1 | 4% | 5%
COc1ccc(S(=O)(=O)N2CCC(C(=O)N3CCc4ccccc4C3)CC2)cc1C | -14% | -14%
COC(=O)c1ccc(S(=O)(=O)NCc2cccc(OC)c2)n1C | -8% | -14%
O=C(N/C(=C/c1ccccc1)C(=O)N1CCCCC1)c1ccc(Br)o1 | -13% | -19%
O=C(CCNC(=O)C1CCN(S(=O)(=O)c2ccccc2)CC1)NC1CC1 | -4% | -14%
N#C/C(=N\Nc1ccc(F)cc1)C(=N)N1CCCCCC1 | -2% | -30%
O=C(NCc1ccccc1)c1nn(-c2ccccc2)nc1CO | -18% | -13%
NCC12CC3CC(CC(O)(C3)C1)C2 | -13% | -3%
Cc1cccc(CC(=O)N2CC(=O)Nc3ccc(F)cc3C2c2ccccc2)c1 (centres undefined) | -8% | -13%
Cc1cc(NC(=O)c2cc(-c3ccccc3)on2)n(-c2ccccc2)n1 | -11% | -12%
Cc1ccc(CNC(=O)C2CCN(C(=O)c3ccc(-n4ccc5ccccc54)s3)CC2)cc1 | -23% | -23%
O=C1NC(=Nc2ccccc2)S/C1=C/c1cccnc1 | 3% | -12%
Cc1cc(=O)n2ncnc2n1COCCO | -12% | .

Additional compounds follow:
SMILES | Vaccinia Venus | VACV mCherry inh
Cc1ccc2onc(CC(=O)Nc3cc(F)ccc3F)c2c1 | -9% | -12%
CCS(=O)(=O)N1N=C(c2cccc(NS(C)(=O)=O)c2)CC1c1ccc(C)cc1 (centres undefined) | 6% | -11%
COc1cccc(C(=O)OCCCN(C)C)c1 | -15% | -11%
CCOc1ccccc1N1CC(c2nc3ccccc3n2CCCOc2ccc(OC)cc2)CC1=O (centres undefined) | 12% | -2%
CN(C)c1ccc(/C=C/c2ccnc3c(N)cccc23)cc1 | -12% | -18%
Cc1ccc(S(=O)(=O)/N=C2\C=C(NS(=O)(=O)c3ccccc3)C(=O)c3ccccc32)cc1 | 32%[activator] | ?
CC(=O)Nc1ccc(S(=O)(=O)N2CCCC2C(=O)O)cc1 (centres undefined) | 0% | i
CCN1C(=O)c2ccc(C(=O)Nc3cccc(C(=O)O)c3)cc2C1=O | -2% | -6%
CCOC(=O)Cc1cc(=O)n2[nH]c(C)c(-c3ccccc3)c2n1 | 12% | 18%
CC(NCc1ccc([N+](=O)[O-])cc1)C1COc2ccccc2O1 (centres undefined) | -5% | ?
CC(C)(C)NC(=O)C(OC(=O)Cn1nnc(-c2ccc(F)cc2)n1)c1ccncc1 (centres undefined) | -8% | -8%
O=C(c1cc(Cl)ccc1Cl)N1CCc2ccccc21 | -27% | -15%
CN(C)CCCNC(=O)C1(O)c2cc(Br)ccc2NC(=O)N1c1ccc(Cl)cc1 (centres undefined) | 5% | -5%
C[C@@H]1CN([C@@H](C)CO)C(=O)c2c(c3ccccc3n2C)-c2ccccc2CO[C@H]1CN(C)C(=O)[C@H](C)c1ccccc1 | ? | ?
COC(=O)c1ccc(NC(=O)C2CCN(c3ncnc4c3nc3n4CCCCC3)CC2)cc1 | -9% | i
O=C1CC(c2nnc(Cc3ccccc3Cl)o2)CN1c1ccccc1 (centres undefined) | 0% | -4%
CCOC(=O)C(CCCOc1ccc(C)cc1)C(=O)OCC | -1% | .
COCCN(C(=O)Cc1cccs1)C(C(=O)NCc1ccc(OC)cc1)c1ccccc1 (centres undefined) | -18% | -8%
Cc1cccc(-n2cnc3cc(C(=O)NCc4ccccc4Cl)ccc32)c1 | -21% | -10%
Cc1cccc(/C=N/NC(=O)Cn2nc(C)cc2C)n1 | -9% | -6%
COC(=O)C(F)(F)Sc1c(C)[nH]c2ccccc12 | -9% | -12%
CC(C)NC(=O)N(C)C[C@H]1Oc2c(NC(=O)c3ccc(-c4nccs4)cc3)cccc2C(=O)N([C@@H](C)CO)C[C@H]1C | -20% | -4%
CC(=O)c1ccc(C(=O)N2CCC(CO)(Cc3cccc(C(F)(F)F)c3)CC2)cc1 | -16% | -8%
CC(C)=CCc1c(O)cc(O)c2c(=O)c(O[C@@H]3O[C@@H](C)[C@H](O)[C@@H](O)[C@H]3O)c(-c3ccc(O)cc3)oc12 | -2% | 3%
CC(CN(C)Cc1ccccc1)OC(=O)c1ccccc1F (centres undefined) | -17% | -13%

3 neighbouring compounds already listed, for reference:
SMILES | Vaccinia Venus | VACV mCherry inh
CC(=O)c1ccc(C(=O)N2CCC(CO)(Cc3cccc(C(F)(F)F)c3)CC2)cc1 | -16% | -8%
CC(C)=CCc1c(O)cc(O)c2c(=O)c(O[C@@H]3O[C@@H](C)[C@H](O)[C@@H](O)[C@H]3O)c(-c3ccc(O)cc3)oc12 | -2% | 3%
CC(CN(C)Cc1ccccc1)OC(=O)c1ccccc1F (centres undefined) | -17% | -13%

Next entries:
SMILES | Vaccinia Venus | VACV mCherry inh
O=C(NN=C1c2ccccc2-c2ccccc21)c1ccccn1 | -30% | ?
CC1CCCCC1NC(=O)c1cc2c(s1)CS(=O)(=O)C2 (centres undefined) | -14% | -18%
O=C(O)c1cc(-c2ccc(Cl)s2)nc2ccccc12 | 11% | -10%
CC(C)[C@@H]1Cc2[nH][nH]c(=O)c2[C@H](C)O1 | 2% | 38%[activator]
Cc1ccc(S(=O)(=O)C2(C(=O)N3CCN(c4cc(C)ccc4C)CC3)CC2)cc1 | -21% | -16%
O=C(NCCOc1ccccc1Cl)C(=O)Nc1ccccc1 | -26% | -11%
C=CCC(=O)N1CCCC(CNC(=O)c2ccc(-c3ccccc3)cc2)C1 (centres undefined) | -12% | -14%
COc1ccccc1CNC(=O)CCc1nc2ccccc2c(=O)[nH]1 | -7% | .
CN1CCN(S(=O)(=O)c2cccc(C(=O)NCCOc3ccccc3F)c2)CC1 | -6% | -19%
CC1CCN(S(=O)(=O)c2ccc(C(=O)N3CCOCC3)cc2)CC1 | -8% | -14%
COC(=O)c1ccc(CSCC(=O)Nc2cc(OC)cc(OC)c2)o1 | 4% | -3%
CCOC(=O)C1CCN(Cc2ccc(F)c(F)c2)CC1 | -12% | i
CC(Sc1nnnn1-c1cccc(F)c1)C(=O)NC1CCCC1 (centres undefined) | -12% | -1%
CCCn1c(NC(=O)CN2C(=O)NC3(CCCC3)C2=O)nc2ccccc21 | -9% | i
COc1ccc([C@H]2CC(=O)C=C(c3ccc(C(F)(F)F)c(C(F)(F)F)c3)C2)cc1OC | ? | ?
CCCCCNC(=O)C(c1cc2ccccc2o1)n1c(=O)c(-c2cc3ccccc3[nH]2)nc2ccccc21 (centres undefined) | -5% | -30%
COc1ccc(NC(=O)CCN2CCCC2)c(OC)c1 | 1% | -13%
O=C(Nc1ccc(Cl)cc1)N1N=CCC1c1ccccc1 (centres undefined) | -20% | ?
CC(=O)OCC(=O)C1(O)CCC2C3CC(F)C4=CC(=O)CCC4(C)C3C(O)CC21C (centres undefined) | -13% | i
CCN1CCN(c2nc(C)c3c(n2)CC(C)CC3=O)CC1 (centres undefined) | -6% | -7%
CN(C)CCNC(NC(=O)c1cccs1)C(Cl)(Cl)Cl (centres undefined) | -9% | i
COC(=O)Cc1[nH]c(=O)[nH]c1C(=O)OC | -24% | i
CCc1ccc(C(=O)c2cn(CC(=O)Nc3cc(C)ccc3C)c3nc(C)ccc3c2=O)cc1 | -5% | -3%
Cn1nc(-c2ccccc2F)c2cc(C(=O)N3CCN(c4ccccc4F)CC3)sc21 | 3% | -13%
COc1ccc(N2CCN(C3CCCN(Cc4cccc(OC)c4)C3)CC2)cc1 (centres undefined) | -9% | -11%

Entries of single compounds, quoted from the list:
Shown for NCC12CC3CC(CC(O)(C3)C1)C2 → Vaccinia Venus: -13%; VACV mCherry inh: -3%
Shown for CCOC(=O)C(CCCOc1ccc(C)cc1)C(=O)OCC → Vaccinia Venus: -1%; VACV mCherry inh: .
Shown for CCN1C(=O)c2ccc(C(=O)Nc3cccc(C(=O)O)c3)cc2C1=O → Vaccinia Venus: -2%; VACV mCherry inh: -6%

Next part:
SMILES | Vaccinia Venus | VACV mCherry inh
Cc1ccc(C)c(NC(=O)c2ccccc2O)c1 | ? | ?
Cc1cccc(Oc2ccc(NC(=O)c3ccccc3C(=O)O)cc2)c1 | -8% | ?
CCCCn1c(N)c(N(CCOC)C(=O)c2cccc(S(=O)(=O)N3CCCCC3)c2)c(=O)[nH]c1=O | -7% | i
CCOC(=O)c1c(NC(=O)c2ccc(Cl)s2)sc(C)c1C | -2% | 27%
Cc1ccc(S(=O)(=O)N(C)C)cc1NC(=O)CCc1c[nH]c2ccccc12 | -17% | -18%
COc1ccc(CNC(=O)Cn2nc3c(cc2=O)CCCC3)cc1 | 0% | -11%
COc1ccccc1NC(=O)C(C)OC(=O)c1nc2nc(C)cc(C)n2n1 (centres undefined) | -14% | -19%
COc1ccc(Br)cc1CNC(=O)Cn1c(=O)c2cccn2c2ccc(F)cc21 | -23% | -21%
COc1cc(C=O)ccc1OCCOCCOc1ccc(Cl)cc1 | -14% | .
C=CCOC(=O)N1CCC2CC1c1cc(-c3ccc(OC)cc3)ccc12 (centres undefined) | -10% | ?
COc1ccc(C2C(C(C)=O)=C(C)N=c3s/c(=C\c4cc(C)n(C)c4C)c(=O)n32)c(OC)c1 (centres undefined) | 309%[activator] | -6%
Cc1cccc(OCCCC(=O)Nc2ccc(N3CCCCC3)cc2)c1C | -9% | i
COc1ccc(CNC(=O)c2ccc3c(O)c(S(=O)(=O)c4ccccc4)c(=O)[nH]c3c2)cc1 | -3% | -7%
CC(C)n1nnnc1C1c2ccccc2C(=O)N1Cc1cccnc1 (centres undefined) | -5% | -6%
N#Cc1c(SCC(=O)Nc2ccccc2)nsc1SCC(=O)Nc1ccccc1 | -14% | i
Cc1cc(F)ccc1S(=O)(=O)NCC(c1ccco1)S(=O)(=O)c1cccs1 (centres undefined) | -7% | -9%
COc1cccc(-c2cnc(C(O)c3ccc(Cl)cc3)[nH]2)c1 (centres undefined) | -15% | -19%
COc1ccc(C(=O)C[C@@H]2OC[C@H](C(C)C)N2S(=O)(=O)c2ccc(C)cc2)cc1OC | -11% | -9%
Cc1ccc(C)c(Cn2c(SCC(=O)NCc3ccccc3)nc3ccccc32)c1 | -3% | -22%
CSc1ncccc1C(=O)N(C)CC(=O)Nc1ccc(Cl)c(C(F)(F)F)c1 | -19% | -21%
O=C(O)c1cc2c(ccc3ccccc32)[nH]1 | -2% | i
CN(CCc1ccccc1)C(=O)c1ccc(NC(=O)Cc2cccc([N+](=O)[O-])c2)cc1 | ? | ?
COc1ccc(C(=O)NCc2cnn(C)c2)cc1OC1CCN(C(C)C)CC1 | -12% | i
COc1ccc(OC)c(NC(=O)N2CCC(N3CCN(Cc4ccc(F)cc4)C(=O)C3=O)CC2)c1 | 4% | -6%
NC(=O)CC(NC(=O)Cc1ccc(Cl)cc1)c1ccc(NC2CCCCCCC2)c([N+](=O)[O-])c1 (centres undefined) | -7% | -9%

5 entries picked at random from the list so far:
SMILES | Vaccinia Venus | VACV mCherry inh
Cc1ccc(S(=O)(=O)N(C)C)cc1NC(=O)CCc1c[nH]c2ccccc12 | -17% | -18%
C=CCC(=O)N1CCCC(CNC(=O)c2ccc(-c3ccccc3)cc2)C1 (centres undefined) | -12% | -14%
CC(C)(C)NC(=O)C(OC(=O)Cn1nnc(-c2ccc(F)cc2)n1)c1ccncc1 (centres undefined) | -8% | -8%
Nc1nnc(SCC(=O)c2ccc3ccccc3c2)s1 | -17% | -27%
CN1CCN(S(=O)(=O)c2cccc(C(=O)NCCOc3ccccc3F)c2)CC1 | -6% | -19%

Carrying on:
SMILES | Vaccinia Venus | VACV mCherry inh
O=C(Nc1ccc(F)cc1)C(c1ccccc1)N1CCN(c2ccncc2)CC1 (centres undefined) | -4% | -11%
N=c1sccn1CC(=O)Nc1ccccc1-c1ccccc1 | -2% | -6%
Cc1cn2c(=O)cc(COC(=O)c3ccc(NC(=O)COc4ccccc4C)cc3)nc2s1 | -5% | -8%
CSc1ncnc2c1ncn2CCCNCC(c1ccccc1)c1ccccc1 | -22% | -13%
O=C(O)c1ccccc1-c1ccc(/C=c2\sc3nc4cc(Br)cnc4n3c2=O)o1 | -1% | -12%
COCCCNC(=S)NNC(=S)Nc1ccccc1 | 1% | -4%
CC(C)(C)C(=O)Nc1ccc(S(=O)(=O)N2CCC(c3nc4ccccc4[nH]3)CC2)cc1 | -22% | ?
Clc1ccc(CNc2ccccc2NCc2ccc(Cl)nc2)cn1 | -28% | -17%
CCC1CCCCN1C(=O)Nc1ccc(F)cc1 (centres undefined) | -10% | -14%
CCOC(=O)N1CCC(NC(=O)c2cc(COc3ccccc3SC)on2)CC1 | -21% | -19%

High-throughput results (PubChem)
